Env fusion inh: blocks HIV Env-driven cell-cell fusion. HeLa-JRFL Env/CEM21 cell fusion, luciferase. inhibition, % at 12.3 µM. actives 1.1% (n = 360,000);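 active means mean replicate inhibition score of at least 50 and every replicate individually at or above 50; inconclusive means only one of the two criteria met; inactive means mean below 50 and not all replicates reaching 50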;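 further: 0% = plate neutral controls and 100% = maraviroc near 300 nM; one replicate is shown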
* = called active by the depositor; ? = inconclusive; [ ] = another dose, or the depositor's remark. An excerpt; count on the stated rates, not on these rows.

> O=C(C[C@@H]1C[C@H]2c3cc(NS(=O)(=O)c4ccc(F)cc4)ccc3O[C@H]2[C@H](CO)O1)NCc1cccnc1
- Env fusion inh = 20.1[16.7 µM]
> CN1C(=O)c2cc(NS(=O)(=O)c3ccccc3F)ccc2OC[C@@H]2O[C@@H](CC(=O)NC3Cc4ccccc4C3)CC[C@@H]21
- Env fusion inh = 3.1[16.7 µM]
> COc1ccccc1-c1cccc2[nH]c3c(c12)CCN1C(=O)[C@H]2[C@H](C)ON(C)[C@H]2C[C@@H]31
- Env fusion inh = -7.9
> COc1ccc(C(=O)Nc2ccc3c(c2)C(=O)N(C)[C@@H]2CC[C@@H](CC(=O)NCC4CC4)O[C@H]2CO3)cc1
- Env fusion inh = 12.5[16.7 µM]
> Cc1ccccc1-c1ccc2c(c1)O[C@H](CN(C)C(=O)Nc1ccc(F)cc1)[C@H](C)CN([C@H](C)CO)S2(=O)=O
- Env fusion inh = -15.8[16.7 µM]
> O=C(C(=O)N1CCC(CNC(=O)C2COc3ccccc3O2)CC1)c1cc2ccccc2o1 (stereo unspecified)
- Env fusion inh = 13.0
> Cc1noc(C)c1S(=O)(=O)N(C)C[C@@H]1Oc2ccc(NC(=O)Nc3ccccc3)cc2C(=O)N([C@@H](C)CO)C[C@@H]1C
- Env fusion inh = -9.2[16.7 µM]
> CO[C@@H]1CN(C)C(=O)c2cc(NC(=O)c3ccc(F)cc3)ccc2OC[C@H](C)NC[C@H]1C
- Env fusion inh = 9.9[16.7 µM]
> COc1ccc(Oc2cccc3c2S(=O)(=O)N(C2CC2)C[C@@H](COCc2ccccc2)O3)cc1
- Env fusion inh = 4.9
> O=C(C[C@@H]1CC[C@@H]2[C@H](COC[C@@H](O)CN2C(=O)c2cnccn2)O1)N1CCN(c2ccccc2)CC1
- Env fusion inh = -12.2[16.7 µM]

> CC(C)NC(=O)Nc1ccc2c(c1)C(=O)N([C@H](C)CO)C[C@H](C)[C@H](CN(C)C(=O)CCC(F)(F)F)OCCCC[C@@H](C)O2
- Env fusion inh = 7.4[16.7 µM]
> C[C@H]1CN([C@@H](C)CO)C(=O)c2c(c3ccccc3n2C)-c2ccccc2CO[C@H]1CN(C)S(=O)(=O)c1ccccc1C#N
- Env fusion inh = 21.3[16.7 µM]
> CCS(=O)(=O)Nc1ccc2c(c1)C(=O)N(C)C[C@@H](OC)[C@H](C)CN(C(=O)c1ccc3c(c1)OCO3)[C@@H](C)CO2
- Env fusion inh = 1.6[16.7 µM]
> C/C=C/c1cnc2c(c1)C(=O)N([C@@H](C)CO)C[C@H](C)[C@H](CN(C)C(=O)Nc1ccc(F)cc1)O2
- Env fusion inh = -8.7[16.7 µM]
> C[C@H](CO)N1C[C@H](C)[C@@H](CN(C)C(=O)C2CC2)OCc2ccccc2-c2c(n(C)c3ccccc23)C1=O
- Env fusion inh = 13.3[16.7 µM]
> C[C@H](CO)N1C[C@H](C)[C@@H](CN(C)C(=O)[C@H](Cc2ccccc2)N(C)C)OCc2ccccc2-c2c(n(C)c3ccccc23)C1=O
- Env fusion inh = 60.3*[16.7 µM]
> C[C@@H]1CN([C@@H](C)CO)C(=O)CCCn2cc(nn2)CO[C@H]1CN(C)Cc1ccncc1
- Env fusion inh = -4.8[16.7 µM]
> C[C@@H]1CN([C@H](C)CO)C(=O)c2c(c3ccccc3n2C)-c2ccccc2CO[C@H]1CN(C)S(=O)(=O)c1ccccc1F
- Env fusion inh = 6.3[16.7 µM]
> COC(=O)C[C@H]1CC[C@H](NS(=O)(=O)c2ccccc2F)[C@H](CO)O1
- Env fusion inh = 11.8[16.7 µM]
> CO[C@H]1CN(C)C(=O)c2ccc(NS(=O)(=O)c3ccc(Oc4ccccc4)cc3)cc2OC[C@H](C)NC[C@H]1C
- Env fusion inh = -6.3[16.7 µM]

> COC(=O)C1=C(C)N(Cc2ccc(C(F)(F)F)cc2)C(=NCc2ccccc2C(F)(F)F)NC1c1ccc(F)cc1 (stereo unspecified)
- Env fusion inh = -70.1
> C[C@H]1CN([C@@H](C)CO)C(=O)c2cc(C#CC3(O)CCCC3)cnc2O[C@@H]1CN(C)C(=O)C1CC1
- Env fusion inh = -10.9[16.7 µM]
> CO[C@H]1CN(C)C(=O)c2ccc(NS(C)(=O)=O)cc2OC[C@@H](C)N(C(=O)c2ccc3c(c2)OCO3)C[C@@H]1C
- Env fusion inh = 4.0[16.7 µM]
> CCCN1C[C@@H](C)[C@H](OC)CN(C)C(=O)c2cc(NC(=O)c3cnccn3)ccc2OC[C@H]1C
- Env fusion inh = -6.2[16.7 µM]
> Cc1ccc(C2c3c(n[nH]c3C)C(=O)N2c2ccccc2)cc1 (stereo unspecified)
- Env fusion inh = -5.8
> CN(C)C(=O)c1cccc(-c2cccc(-c3nc(C(=O)NC4CCCCC4)cc4c3[C@H](CCO)N([S@@](=O)C(C)(C)C)C4)c2)c1
- Env fusion inh = 0.1[16.7 µM]
> CN(C(=O)c1ccc(NC(=O)Cc2cccc(NC(=O)C3CCN(C(=O)CCc4ccccc4)CC3)c2)cc1)C1CC1
- Env fusion inh = -9.2
> COc1ccc(CN(C)C[C@@H]2OCCCC[C@@H](C)Oc3ccc(NS(=O)(=O)c4ccc(F)cc4)cc3C(=O)N([C@@H](C)CO)C[C@H]2C)cc1
- Env fusion inh = -0.3[16.7 µM]
> C[C@H](CO)N1C[C@H](C)[C@H](CN(C)CC2CC2)OCCCC[C@H](C)Oc2ccc(NC(=O)Cc3ccccc3)cc2C1=O
- Env fusion inh = -8.2[16.7 µM]
> Cc1ccc(NC(=O)Nc2ccc3c(c2)C(=O)N(C)[C@@H]2CC[C@H](CC(=O)NCC(F)(F)F)O[C@@H]2CO3)cc1
- Env fusion inh = 8.6[16.7 µM]

> CC=Cc1ccc2n(c1=O)C[C@@H]1[C@@H](CO)[C@H](C(=O)N[C@@H](C)c3ccccc3)[C@H]2N1CC (mixture of isomers)
- Env fusion inh = 7.1[16.7 µM]
> CC(C)[C@H](NC(=O)c1ccc(Cl)cc1Cl)C(=O)N1CCC[C@H]1C(=O)NCCc1ccccc1Cl
- Env fusion inh = -19.8
> C[C@@H]1CCCCO[C@H](CN(C)C)[C@H](C)CN([C@@H](C)CO)C(=O)c2cc(NS(=O)(=O)c3cn(C)cn3)ccc2O1
- Env fusion inh = 57.7*[16.7 µM]
> O=C([C@H]1N[C@H]2c3ccc(C4=CCCCC4)c(=O)n3C[C@H]2[C@@H]1CO)N1CCC(Cc2ccccc2)CC1
- Env fusion inh = 6.8[16.7 µM]
> C[C@@H]1CN([C@@H](C)CO)C(=O)c2cc(C#Cc3ccccc3F)cnc2O[C@@H]1CN(C)C(=O)C1CCCCC1
- Env fusion inh = 14.3[16.7 µM]
> O=C1OCC2=Nc3cccc4cccc(c34)N12
- Env fusion inh = -5.7
> CCCN(C)C[C@H]1OCCCC[C@@H](C)Oc2ccc(NS(=O)(=O)c3cn(C)cn3)cc2C(=O)N([C@H](C)CO)C[C@H]1C
- Env fusion inh = 2.1[16.7 µM]
> CC=Cc1ccc2n(c1=O)C[C@@H]1[C@@H](CO)[C@H](C(=O)NCCc3cn(C)cn3)N(C(=O)C3CCC3)[C@H]21 (mixture of isomers)
- Env fusion inh = 14.7[16.7 µM]
> COC(=O)C[C@H]1CC[C@H]2[C@H](COc3ccc(NS(=O)(=O)c4ccccc4Cl)cc3C(=O)N2C)O1
- Env fusion inh = -1.4[16.7 µM]
> COCC(=O)Nc1ccc2c(c1)[C@H]1C[C@@H](CC(=O)NCc3ccc4c(c3)OCO4)O[C@@H](CO)[C@H]1O2
- Env fusion inh = 10.2[16.7 µM]

> CCS(=O)(=O)Nc1ccc2c(c1)C(=O)N(C)[C@H]1CC[C@H](CC(=O)NCc3ccccc3F)O[C@@H]1CO2
- Env fusion inh = -18.5[16.7 µM]
> COc1cccc(C(=O)Nc2ccc3c(c2)C(=O)N(C)[C@@H]2CC[C@H](CC(=O)NCCCN4CCOCC4)O[C@@H]2CO3)c1
- Env fusion inh = -7.4[16.7 µM]
> CC(C)NC(=O)N[C@@H]1CC[C@@H](CCN)O[C@H]1CO
- Env fusion inh = -9.5[16.7 µM]
> O=C(NCC1CC1)[C@H]1[C@H](CO)[C@H]2Cn3c(ccc(-c4ccccc4F)c3=O)[C@@H]1N2Cc1cccnc1
- Env fusion inh = -6.5[16.7 µM]
> CCCCCCCCCCCCN1CCSCCS1(=O)=O
- Env fusion inh = -4.9
> COc1ccccc1NC(=O)N[C@@H]1CC[C@H](CCn2cc(C3(O)CCCC3)nn2)O[C@H]1CO
- Env fusion inh = 6.6[16.7 µM]
> CC(C)[C@H](C)NC(=O)N(C)C[C@@H]1OCc2ccccc2-c2ccccc2C(=O)N([C@@H](C)CO)C[C@@H]1C
- Env fusion inh = 16.6[16.7 µM]
> CNC[C@H]1OCCCC[C@H](C)Oc2ccc(NC(=O)CCC(F)(F)F)cc2C(=O)N([C@@H](C)CO)C[C@@H]1C
- Env fusion inh = 6.8[16.7 µM]
> CN1C(=O)c2cc(NS(C)(=O)=O)ccc2OC[C@H]2O[C@@H](CC(=O)NC3CCCCC3)CC[C@@H]21
- Env fusion inh = 0.2[16.7 µM]
> COc1ccc(CNC(=O)C[C@H]2C[C@H]3c4cc(NC(=O)C5CCC5)ccc4O[C@H]3[C@@H](CO)O2)cc1
- Env fusion inh = 6.4[16.7 µM]

> C[C@H](CO)N1C[C@H](C)[C@H](CN(C)S(=O)(=O)c2ccc(Cl)cc2)Oc2ccc(NC(=O)Cc3cn(C)c4ccccc34)cc2CC1=O
- Env fusion inh = ?
> CC(C)[C@H](NC(=O)CC1CCCC1)C(=O)N1CCC[C@H]1C(=O)NCCc1ccccc1Cl
- Env fusion inh = -4.6
> CN(C)CCCNC(=O)C[C@H]1CC[C@@H]2[C@H](COc3ccc(NS(C)(=O)=O)cc3C(=O)N2C)O1
- Env fusion inh = -12.4[16.7 µM]
> C[C@@H]1CN([C@@H](C)CO)C(=O)c2cc(NC(=O)Nc3ccc(F)cc3)ccc2O[C@@H]1CN(C)C(=O)Nc1ccc2c(c1)OCO2
- Env fusion inh = 16.1[16.7 µM]
> C[C@@H]1CN([C@H](C)CO)C(=O)c2c(c3ccccc3n2C)-c2ccccc2CO[C@H]1CN(C)S(=O)(=O)c1ccsc1
- Env fusion inh = 4.8[16.7 µM]
> C[C@@H]1CN([C@H](C)CO)C(=O)c2cc(NC(=O)NC3CCCCC3)ccc2O[C@@H](C)CCCCO[C@H]1CN(C)C
- Env fusion inh = 11.4[16.7 µM]
> COc1cc(C=CC(=O)c2ccccc2)cc(OC)c1OC
- Env fusion inh = -50.3
> O=C(C[C@H]1CC[C@@H](NC(=O)CCN2CCCCC2)[C@H](CO)O1)Nc1ccccc1
- Env fusion inh = -31.4[16.7 µM]
> C/C=C/c1cnc2c(c1)C(=O)N([C@@H](C)CO)C[C@H](C)[C@@H](CN(C)C(=O)CCN1CCCCC1)O2
- Env fusion inh = 11.1[16.7 µM]
> CC(C)N(c1cc(=O)nc2ccccn12)C(C)C
- Env fusion inh = -5.3

Some of the entries so far, with bars between the fields.
smiles | Env fusion inh
C/C=C/c1cnc2c(c1)C(=O)N([C@@H](C)CO)C[C@H](C)[C@@H](CN(C)C(=O)CCN1CCCCC1)O2 | 11.1[16.7 µM]
CC(C)N(c1cc(=O)nc2ccccn12)C(C)C | -5.3

Continuation.
> COC(=O)C1=C(C)N(Cc2ccc(C(F)(F)F)cc2)C(=NCc2ccccc2)NC1c1ccc(C(F)(F)F)cc1 (stereo unspecified)
- Env fusion inh = 18.2
> O=C(C[C@H]1C[C@H]2c3cc(NC(=O)c4ccc5c(c4)OCO5)ccc3O[C@H]2[C@@H](CO)O1)NCc1ccccn1
- Env fusion inh = -5.6[16.7 µM]
> C=CC[C@]1(c2ccccc2)C(=O)N2C[C@H]3CON(C)[C@H]3C[C@H]2c2ccccc21
- Env fusion inh = -28.3
> C[C@@H]1CN([C@H](C)CO)S(=O)(=O)c2ccc(C#CC3CC3)cc2O[C@H]1CN(C)C(=O)Nc1cc(F)ccc1F
- Env fusion inh = 4.9[16.7 µM]
> CO[C@@H]1CN(C)C(=O)c2ccc(NS(=O)(=O)c3ccccc3C)cc2OC[C@H](C)N(C)C[C@@H]1C
- Env fusion inh = -2.5[16.7 µM]
> CO[C@@H]1CN(C)C(=O)c2cc(NC(=O)Nc3cccc(F)c3)ccc2OC[C@H](C)N(C(=O)C2CC2)C[C@H]1C
- Env fusion inh = 18.0[16.7 µM]
> C[C@H](CO)N1C[C@H](C)[C@H](CN(C)Cc2ccc(C(F)(F)F)cc2)OCc2cnnn2CCCC1=O
- Env fusion inh = 4.6[16.7 µM]
> CO[C@@H]1CN(C)C(=O)c2cc(NS(=O)(=O)c3cn(C)cn3)ccc2OC[C@H](C)N(CCC(F)(F)F)C[C@H]1C
- Env fusion inh = -18.0[16.7 µM]
> COc1ccc(NC(=O)Nc2ccc3c(c2)CC(=O)N([C@H](C)CO)C[C@@H](C)[C@@H](CN(C)S(=O)(=O)c2ccc(C)cc2)O3)cc1
- Env fusion inh = 2.1[16.7 µM]
> Cc1nn(C)cc1NC(=O)C[C@H]1CC[C@@H]2[C@@H](COc3ccc(NC(=O)C4CCOCC4)cc3C(=O)N2C)O1
- Env fusion inh = 6.4[16.7 µM]

> Cc1cccc2nc(-c3ccccc3)c(-c3ccc(CN4CCC5(CC4)CNc4ccccc45)cc3)nc12
- Env fusion inh = 16.9
> CO[C@@H]1CN(C)C(=O)c2ccc(NC(=O)c3ccccn3)cc2OC[C@@H](C)N(Cc2ccccn2)C[C@H]1C
- Env fusion inh = -13.0[16.7 µM]
> C[C@H](CO)N1C[C@H](C)[C@@H](CN(C)S(C)(=O)=O)OCc2ccccc2-c2ccccc2C1=O
- Env fusion inh = -16.5[16.7 µM]
> CCS(=O)(=O)Nc1ccc2c(c1)C(=O)N(C)C[C@@H](OC)[C@H](C)CN(CC1CCCC1)[C@@H](C)CO2
- Env fusion inh = -10.2[16.7 µM]
> COc1ccc2c3c(n(C)c2c1)[C@H](CO)N(C(=O)NC(C)C)CC31CCN(C(=O)NC(C)C)CC1
- Env fusion inh = 25.2[16.7 µM]
> CC(C)(C)OC(=O)N[C@H]1C=C[C@@H](CC(=O)OCC(F)(F)F)C1
- Env fusion inh = 15.8
> C[C@@H](NC(=O)C[C@H]1C=C[C@H](NC(=O)Nc2ccc3c(c2)OCO3)[C@@H](CO)O1)c1ccccc1
- Env fusion inh = 0.4[16.7 µM]
> O=C(N[C@H](C(=O)N1CCC[C@H]1C(=O)NC1CCCC1)C1CCCCC1)c1ccco1
- Env fusion inh = -8.8
